Screens: PubChem BioAssay, several laboratories
MT1-MMP promoter – inhibitors of MT1-MMP promoter transcription, cell-based, luciferase reporter, luminescence (AID 618). MT1-MMP promoter luciferase reporter cells, luminescence. calls from a first round at 10 µM; hits with a dose series show EC50 in µM. 87,000 tested, 0.62% active;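 active means over half of the reporter light lost at 10 µM or EC50 under 50 µM; inactive means the rest and hits that failed the dose series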;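 further: actives suppress MT1-MMP promoter-driven transcription so potencies describe inhibitors; HT1080 fibrosarcoma cells; overnight exposure; toxic or luciferase-blocking compounds were not removed from the actives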
Hsc70 – Hsc70 inhibitors, probe displacement, primary screen, biochemical, fluorescence polarization (AID 568) | one-dose displacement, % at 20 µM; IC50 in µM for titrated hits | 83,000 tested, under 10 active | Hsc70 fluorescence polarization, probe displacement; higher % means a stronger effect; strong numbers were not always called active;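 active means displacement above 50% without optical interference and an IC50 on retest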;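 further: ATPase domain with a fluorescein-tagged ATP probe; 0% = vehicle and 100% = excess ADP; read after one hour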
WNV protease inh – blocks West Nile virus NS2B-NS3 protease activity. P06935. WNV NS2B-NS3 protease, fluorogenic substrate Ex360/Em465; stronger effect = lower value. z-score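 (tested at a level between 10 and 100 µM)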. 65,000 tested, 0.18% active. AID 577;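 active means z-score at -3 or under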;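 further: score is relative to mean and spread of the compound wells of a plate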
Target sequence (P06935 1371-1501 limits assumed): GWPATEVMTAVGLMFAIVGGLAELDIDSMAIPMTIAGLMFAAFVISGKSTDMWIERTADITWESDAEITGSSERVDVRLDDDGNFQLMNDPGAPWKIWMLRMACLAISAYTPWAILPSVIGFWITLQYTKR
Target sequence (P06935 1502-1679 limits assumed): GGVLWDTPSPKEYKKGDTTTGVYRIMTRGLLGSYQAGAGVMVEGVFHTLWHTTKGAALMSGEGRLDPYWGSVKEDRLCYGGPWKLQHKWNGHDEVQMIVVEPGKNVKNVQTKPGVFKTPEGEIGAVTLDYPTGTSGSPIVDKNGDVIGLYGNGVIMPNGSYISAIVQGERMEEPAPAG
* marks the source's active call; other numbers are inactive results; i = inactive; nt = not tested or not shown.

Compound | MT1-MMP promoter | Hsc70 | WNV protease inh
Cc1cc(OCC(=O)Nc2ccc3c(c2)OCCO3)ccc1Cl | i | 5.0% | -0.37
Cc1ccc(-n2c(SCC(=O)N3CCOCC3)nnc2-c2ccncc2)cc1 | i | -3.3% | -0.29
COc1ccccc1NC(=O)c1cccs1 | i | 1.3% | -0.97
COc1ccc(-n2c(N)c(C(=O)NCC3CCCO3)c3nc4ccccc4nc32)c(OC)c1 (stereo unspecified) | i | -2.9% | -0.98
COc1ccc(N2C(=O)C3CCCN3C2c2cccc(OC)c2OC)cc1 (stereo unspecified) | i | -8.6% | 0.24
Cc1ccc(-n2ncc3c(=O)n(Cc4cccnc4)cnc32)cc1 | i | 2.1% | -0.16
CN1C(=O)CS(=O)c2ccc(C(=O)NC3CC3)cc21 (stereo unspecified) | i | 0.1% | 1.09
COc1cccc(-n2c(COc3ccc(C)cc3)nnc2SCC(N)=O)c1 | i | 5.0% | -0.52
CCC(CC)c1nnc(NC(=O)c2c(-c3ccccc3)noc2C)s1 | i | -2.9% | 0.54
O=C(COC(=O)CCC(=O)c1ccc(F)cc1)Nc1ccc(N2CCOCC2)cc1 | i | 4.7% | -0.69
COc1ccccc1-c1nnc(SCC(=O)Nc2ccc(S(N)(=O)=O)cc2)n1C | i | 6.0% | nt
COc1ccc(C2NC(=O)NC(O)(C(F)(F)F)C2C(=O)c2ccc(C)cc2)cc1 (stereo unspecified) | i | 1.3% | -0.27
CCCCOc1ccc(-c2nnn(CCC(=O)N3CCOCC3)n2)cc1 | i | 0.8% | -0.53
N#Cc1ccc(CSc2nnc(-c3ccccn3)n2-c2ccc(Cl)cc2)cc1 | i | 0.6% | -0.13
CCOc1ccccc1NC(=O)C1CCN(S(=O)(=O)c2c(C)nn(C)c2C)CC1 | i | 0.7% | -0.31
CCC(=O)c1cn(CC(=O)NCC2CCCO2)c2ccccc12 (stereo unspecified) | i | -0.9% | -0.54
CCCCn1c(=N)n(CC(=O)C(C)(C)C)c2ccccc21 | i | -0.1% | -0.19
O=C(Cn1cnc2ccccc21)OCC(=O)N1CCCc2ccccc21 | i | -2.4% | 1.69
COC(=O)c1ccccc1NC(=O)COc1ccc(S(=O)(=O)N2CCCC2)cc1C | i | -0.1% | 0.22
Cn1nc(SCC(=O)O)sc1=S | i | -3.6% | 1.07
COc1cccc(Nc2ncccc2C(=O)NCc2ccccc2)c1 | i | 34.9% | 0.33
COC(=O)c1ccc(C(=O)OC)nc1 | i | 4.5% | 0.77
COc1ccc(N(CC(=O)Nc2cccc(N(C)S(C)(=O)=O)c2)S(C)(=O)=O)cc1OC | i | -1.1% | -0.49
CCOc1ccc(OCC)c(NC(=O)C2CCCN(S(=O)(=O)c3c(C)noc3C)C2)c1 (stereo unspecified) | i | 6.6% | -0.62
COCCNC(=O)CSc1ncnc2sccc12 | i | 5.4% | nt
CCCN(Cc1cc2cccc(C)c2[nH]c1=O)C(=O)c1cccc(OC)c1 | i | 1.9% | -0.61
CS(=O)(=O)N1CCN(C(=O)NC23CC4CC(CC(C4)C2)C3)CC1 | i | -1.3% | 0.11
CCn1nc(C)c(Oc2ccccc2O)c1C | i | -2.6% | -0.63
COc1ccc2[nH]c(=O)c(CN(Cc3ccco3)C(=O)c3ccccc3)cc2c1 | i | -2.0% | -0.3
CCC(C)C1C(C#N)=C(N)Oc2n[nH]c(-c3ccccc3)c21 (stereo unspecified) | i | 0.9% | -0.81
COc1cc(C(=O)NCC(=O)n2nc(C)cc2C)cc(OC)c1OC | i | 2.1% | -0.3
CCOc1ccc(N=Cc2c(O)cc(C)oc2=O)cc1 | i | 6.7% | 0.71
N#Cc1c2c(c(NCCN3CCOCC3)n3c1nc1ccccc13)CCCC2 | i | 1.8% | 0.35
O=C(C1CCC1)N1CCc2cc(S(=O)(=O)N3CCN(c4ccccn4)CC3)ccc21 | i | 6.6% | 0.92
CCOC(=O)Cc1csc(NC(=O)CCS(=O)(=O)Cc2ccccc2)n1 | i | -1.7% | -0.56
O=C(NCCOC(=O)c1ccc(S(=O)(=O)N2CCOCC2)cc1)c1cccnc1 | i | -2.2% | -0.01
CC(=O)NC12CC3CC(C1)CC(C(=O)OCC(=O)c1ccc4c(c1)OCCO4)(C3)C2 | i | -9.3% | 0.41
CCCCN(C(=O)CNC(=O)c1cccs1)C(C(=O)NC1CCCCC1)c1cccnc1 (stereo unspecified) | i | 4.2% | nt
COc1ccccc1N1CCN(c2cc(=O)n(Cc3ccc(F)cc3)c(=O)[nH]2)CC1 | i | 4.4% | -0.15
CC(C)c1nnc(SCC(=O)NCc2ccco2)n1C | i | 5.2% | -0.41

One compound at a time, as listed above. Screens in order: MT1-MMP promoter	Hsc70	WNV protease inh
`CCOC(=O)Cc1csc(NC(=O)CCS(=O)(=O)Cc2ccccc2)n1` is listed with i	-1.7%	-0.56
`COc1cc(C(=O)NCC(=O)n2nc(C)cc2C)cc(OC)c1OC` is listed with i	2.1%	-0.3
`N#Cc1c2c(c(NCCN3CCOCC3)n3c1nc1ccccc13)CCCC2` is listed with i	1.8%	0.35
`CCOc1ccc(N=Cc2c(O)cc(C)oc2=O)cc1` is listed with i	6.7%	0.71
`O=C(C1CCC1)N1CCc2cc(S(=O)(=O)N3CCN(c4ccccn4)CC3)ccc21` is listed with i	6.6%	0.92

(further entries)
Compound | MT1-MMP promoter | Hsc70 | WNV protease inh
N=c1c(S(=O)(=O)c2ccccc2)cc2c(=O)n3ccccc3nc2n1Cc1ccco1 | i | -1.3% | 1.13
Cc1ccc(C(=O)COC(=O)c2cnccn2)cc1 | i | -0.9% | -0.14
CCOC(=O)c1cnc2ccc(Cl)cc2c1NCCN(C)C | i | 3.3% | nt
O=C(Nc1ccc(Cl)cc1)C(c1ccccc1)N(CCO)CCO (stereo unspecified) | i | 6.9% | 0.91
CCCCCC1CC(=O)N(Cc2ccccc2)C(=O)N1 (stereo unspecified) | i | 3.6% | -1.53
CCCCOC(=O)C1=C(C)Nc2ncnn2C1c1ccc(OCC)c(OC)c1 (stereo unspecified) | i | 2.8% | 1.56
N#CC1=C(N)Oc2n[nH]c(CSc3ccccc3)c2C12C(=O)Nc1ccccc12 (stereo unspecified) | i | -1.3% | 0.11
CN1CCN(C(=O)c2ccc3c(=O)n(Cc4ccc(Cl)cc4)c(=S)[nH]c3c2)CC1 | i | -0.7% | 0.73
COc1ccccc1CNC(=O)CCN1C(=O)COc2ccccc21 | i | -1.9% | -0.69
COC(=O)c1ccc(Cl)c(NC(=O)CN2CCN(Cc3ccccc3)CC2)c1 | i | 4.2% | -0.29
Cc1cc(NC(=O)C2(c3ccccc3)CCCC2)no1 | i | 0.0% | -0.88
CCC(C)C(NC(=O)OC(C)(C)C)C(=O)NC(C(=O)N1CCCC1C(N)=O)C(C)CC (stereo unspecified) | i | -2.0% | -0.61
CCOC(=O)c1cnc(SCC(=O)Nc2cc(C(F)(F)F)ccc2N2CCOCC2)nc1N | i | 0.7% | -0.67
Cn1nnnc1SCCNCc1ccccc1F | i | 8.0% | nt
Cn1c(=O)c2c(SCC(=O)N3CCC(Cc4ccccc4)CC3)nc(C3CC3)nc2n(C)c1=O | i | 2.4% | -1.48
O=C(CN1CCN(CC(=O)c2ccc(F)cc2)CC1)Nc1ccccc1Cl | i | 0.8% | -1.12
CCOC(=O)CSc1nnc(Cc2ccccc2)n1CC1CCCO1 (stereo unspecified) | i | 2.9% | 0.28
Cc1nc(CCNC(=O)Cc2ccccc2)cs1 | i | -2.3% | -1.09
Cc1cc(-c2ccco2)n(-c2ccccc2)n1 | i | -0.9% | 0.77
COc1cc2c(cc1OC)C(c1ccc(N(C)C)cc1)CC(=O)N2 (stereo unspecified) | i | 4.7% | 1.3
CCn1c(SCC(=O)N2CCN(c3ccccc3)CC2)nnc1-c1ccncc1 | i | -1.2% | nt
O=C(COC(=O)CNC(=O)C1CCCCC1)Nc1ccc2ccccc2c1 | i | 2.2% | nt
Fc1c(F)c(F)c(CSc2nc3ccccc3[nH]2)c(F)c1F | i | -4.8% | 0.58
O=C(c1ccc(Cl)s1)N1CCN(c2ccccc2)CC1 | i | 2.0% | -0.48
Cc1occc(=O)c1OC(=O)Nc1ccccc1 | i | 3.0% | 0.78
CCC(C)C1C(C#N)=C(N)Oc2n[nH]c(C)c21 (stereo unspecified) | i | -3.2% | 0.51
CCC1(CC)Cc2ccccc2C(CC(=O)N2CCOCC2)=N1 | i | 2.6% | nt
Cc1ccc(C)c(OCC(=O)Nn2c(C)nc3ccccc3c2=O)c1 | i | 3.1% | nt
O=C(CSc1nc2ccccc2c(=O)n1-c1ccccc1)NCc1ccco1 | i | 0.8% | -0.88
O=C(Nc1ccccc1)Nc1nncs1 | i | -2.0% | 0.21
N#Cc1c(SCc2ccc(Cl)cc2)sc(C(=O)c2ccccc2)c1N | i | -1.4% | nt
COc1ccc(-c2cc(-c3cccs3)c(C#N)c(SCC(=O)NCc3ccco3)n2)cc1 | i | -3.6% | -0.69
Cc1noc(C)c1CSc1ncnc2sc(C)c(C)c12 | i | -0.1% | 0.3
CCOC(=O)c1c(C)c(C(=O)N(C)C2CCCCC2)c(C)n1C | i | -11.4% | 1.03
CCn1c(=N)n(CCOc2ccc(OC)cc2)c2ccccc21 | i | 1.2% | -0.24
CCOC(=O)c1ccccc1NC(=O)c1ccc(NS(C)(=O)=O)cc1 | i | 1.9% | 0.2
O=C(c1ccccc1F)N1CCN(c2ccccc2F)CC1 | i | 0.7% | 0.63
Cc1cc(NC(=O)CSc2nnc(-c3ccoc3C)o2)no1 | i | -2.1% | -0.13
CC(=O)NC1C(=O)N=C(SCC(=O)NCc2ccccc2)NC1=O (stereo unspecified) | i | -5.7% | 1.8
COc1cc(NC2=CC(=O)CC(C)(C)C2)cc(OC)c1OC | i | 80.9% | 0.74
Cc1c(NC(=O)Cn2cnc3c(=O)n(C)c(=O)n(C)c32)cccc1-c1nc2ccccc2o1 | i | -10.5% | -0.48
Cc1onc(-c2ccccc2Cl)c1C(=O)Nc1ccc(CN2CCCC2)cc1 | i | -4.3% | -0.23
COc1ccc2[nH]c(=O)c(CN(CCO)C(=O)c3cccs3)cc2c1 | i | -0.5% | nt
CCCc1ccc(Oc2cn[nH]c2-c2ccc(O)cc2O)cc1 | i | -3.3% | -0.34
COc1ccc(S(=O)(=O)N2CCC(C(=O)N3CCOCC3)CC2)cc1OC | i | -0.3% | -0.09
Cc1c(Br)cc(-c2nnco2)cc1Br | i | 10.7% | -1.02
Cc1cccc(C)c1N1C(=O)C2ON(c3ccccc3)C(c3ccncc3)C2C1=O (stereo unspecified) | i | 0.6% | 0.19
COc1ccc(-c2nc3ccccc3c(=O)n2CCCn2ccnc2)cc1 | i | -3.2% | -0.23
Cc1ccc(C2C(C#N)=C(N)Oc3cc4c(cc32)OCO4)cc1 (stereo unspecified) | i | 4.9% | -0.22
Cn1ncc2c1ncn1c(-c3ccccc3Cl)nnc21 | i | 0.3% | 1.34

The list continues.
Compound | MT1-MMP promoter | Hsc70 | WNV protease inh
CCOC(=O)c1c(C)oc2ccc(O)c(CN3CCCCC3)c12 | i | -1.1% | -1.09
O=C(Nc1ccc2c(c1)OCCO2)c1ccc(CN2CCOCC2)cc1 | i | 3.8% | -0.99
CC1(C)CC2(CCO1)N1CC3(C)CN2CC(C)(C1)C3=O (stereo unspecified) | i | 4.4% | nt
CCOC(=O)Cn1c(CN2CCN(c3cccc(Cl)c3)CC2)nc2c1c(=O)[nH]c(=O)n2C | i | 7.1% | -0.06
O=C(COc1ncnc2ccccc12)NCCCN1CCCC1=O | i | 0.3% | 0.42
O=C(O)Cc1ccc(C(=O)c2cccs2)s1 | i | -3.1% | 1.84
COC(=O)Nc1nnc(CC(=O)Nc2ccccc2C)s1 | i | -1.9% | -0.09
COc1ccc(C(=O)COC(=O)Cn2nnc3ccccc32)cc1Br | i | -5.7% | 1.21
CCOC(=O)N1CCN(c2c(F)cc3[nH]c(=S)[nH]c3c2Br)CC1 | i | -7.5% | -2.06
CCN1C(=O)c2ccccc2S(=O)c2ccc(C(=O)NC3CC3)cc21 (stereo unspecified) | i | 6.3% | 0.97
O=C(NC1CCCC1)c1ccc(Br)s1 | i | -1.7% | 0.51
O=C(NCc1ccco1)C1CCCN(S(=O)(=O)c2cccc3nsnc23)C1 (stereo unspecified) | i | -0.5% | -2.54
COc1ccc(-c2nnn(CC(=O)NC3CCCc4ccccc43)n2)cc1OC (stereo unspecified) | i | -2.1% | -0.11
COC(=O)Cn1c(=O)sc2ccccc21 | i | 1.6% | -0.44
COc1cccc(C(=O)Nc2nc3c(c(=O)[nH]2)CCCC3)c1 | i | -0.3% | nt
CC1CN(Cc2nc3c(c(=O)n(C)c(=O)n3C)n2CC(=O)c2ccccc2)CC(C)O1 (stereo unspecified) | i | 2.8% | 1.62
COc1cccc(C(O)CC(N)=O)c1 (stereo unspecified) | i | 3.9% | -0.42

Only part of the results is shown; rates above refer to the full screens.
